Source: PubChem
Anaer choline gr: blocks anaerobic gram-negative growth on choline. calls only. Gram-negative bacterium anaerobic choline minimal medium, absorbance growth; hits give low values; many inactives read as strong as hits in the columns shown. 55,000 compounds, 0.2% hits;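 active = growth z-score on choline under -2 at 7 or 20 h with little or no fall on glycerol, limits in tiers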;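 note: stock transfer was 300 nL into about 50 µL; the organism is E. coli; final concentration not given here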
Anaer choline gr early: recorded beside Anaer choline gr, whose call it bears; z-score; measured here: choline growth z-score, timepoint 1;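 score of optical density at 7 h as mean of two plates; lower means less growth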
Starred values were filed as active, the others as inactive; i = inactive; + = active, no number; & = joins results of further samples. This is a subset. The share of hits here may be higher or lower than overall.

Start of the data: the first three compounds, to show the layout:
Anaer choline gr | Anaer choline gr early | Structure
i | 0.67 | CCn1c(=O)c(N2CCC(NC(=O)NCC3CCCO3)CC2)nc2ccccc21 (stereo unspecified)
i | -0.43&0.79 | Cc1c(-c2ccccc2)oc2c(C(=O)OCCN3CCCCC3)cccc2c1=O
i | -1.1 | COc1ccc(Cl)cc1NC(=O)Nc1ccccc1Sc1cc(C)nc2ncnn12

Main list, repeating the preview:
Anaer choline gr | Anaer choline gr early | Structure
i | 0.67 | CCn1c(=O)c(N2CCC(NC(=O)NCC3CCCO3)CC2)nc2ccccc21 (stereo unspecified)
i | -0.43&0.79 | Cc1c(-c2ccccc2)oc2c(C(=O)OCCN3CCCCC3)cccc2c1=O
i | -1.1 | COc1ccc(Cl)cc1NC(=O)Nc1ccccc1Sc1cc(C)nc2ncnn12
i | 0.41 | O=S(=O)(c1ccc2nc(N3CCOCC3)ccc2c1)N1CCCC1
i | 0.25 | CCN1CCN(c2cc(C)nc3nc(CN4CCC5(CC4)OCCO5)nn23)CC1
i | 0.17 | Cc1ccc(Cl)cc1NCc1cc(=O)n2[nH]c(-c3ccc(C(C)(C)C)cc3)nc2n1
i | 0.64 | Cc1ccc(S(=O)(=O)N2CCN(c3nc4ccccc4n4cccc34)CC2)cc1C
i | 1.4 | O=C([C@H](Cc1ccccc1)N1Cc2ccccc2C1=O)N1CCC(Cc2ccccc2)CC1
i | 0.4 | COc1ccccc1N1CCN(c2ccc(C(=O)N3CCc4ccccc43)nn2)CC1
i | -0.31 | CC(C)c1cc(C2CCCN2S(=O)(=O)c2cnc[nH]2)no1 (stereo unspecified)
i | -0.77 | Cn1c(=O)c(=O)n(C)c2cc3c(cc21)ncn3Cc1ccccc1
i | -0.05 | Cc1noc(-c2ccccc2OCC(=O)N(C)C)n1
i | 0.14 | CCn1ccc2cc(S(=O)(=O)N3CCCN(C(=O)Nc4ccc(C)c(Cl)c4)CC3)ccc21
i | 0.86 | Cc1ccccc1-c1noc(-c2nnn(-c3ccc(Cl)cc3)c2C)n1
i | 0.77 | Cn1c(=O)oc2cc(S(=O)(=O)NCc3cccn3Cc3ccccc3F)ccc21
i | 0.69 | Cc1ccc(-c2noc3c(=O)n(CCC(=O)Nc4ccc(Cl)cc4C)cnc23)cc1
i | 2.1 | Clc1cccc(-c2noc(Cc3nc(-c4ccc5c(c4)OCO5)cs3)n2)c1
i | 0.35 | O=S(=O)(CCc1noc(-c2cc3ccccc3[nH]2)n1)c1ccccc1
i | 0.6 | CCN1CCN(C(=O)C2CCN(c3cnc(N4CCSCC4)nc3)CC2)CC1
i | 0.74 | CCOc1ccc(C2CC(=O)Nc3c2cnn3-c2ccc3nnc(C)n3n2)cc1OCC (stereo unspecified)
i | -0.22 | CCC(=O)Nc1ccccc1-c1nnc(SC(C)C(=O)Nc2cccc(C)c2C)[nH]c1=O (stereo unspecified)
i | -0.14 | NC(=O)C1CCN(C(=O)c2ccc3c(c2)N(CC(=O)N2CCCC2)C(=O)CO3)CC1
i | -0.67 | Cc1cccc(CN2CCC(CNC(=O)C3c4ccccc4C(=O)N4CCc5ccccc5C34)CC2)c1 (stereo unspecified)
i | 0.43 | O=C(CCCN1C(=O)c2ccccc2Sc2ncccc21)NCc1ccccc1
i | 0.31 | CCC(C)NC(=O)N1CCCC1c1c(C)noc1C (stereo unspecified)
i | 0.71 | Cc1ccc(Cl)cc1NC(=O)c1cn(-c2cc(-c3noc(C4CC4)n3)ccc2C)nc1C
i | 0.1 | Cc1cccc(-c2noc(-c3cn(CC(=O)NC4CCc5ccccc54)c4nc(C)ccc4c3=O)n2)c1 (stereo unspecified)
i | 0.04 | CC1CCN(C(=O)c2cc3c(s2)CCC(C(=O)NCCN2CCOCC2)C3)CC1 (stereo unspecified)
i | 0.37 | Cc1cccc(N2CCN(S(=O)(=O)c3cc(-c4nnc(C5CC5)o4)co3)CC2)c1
i | 0.95 | Cc1cccc(CSc2nc3cccnc3n2Cc2cccc(F)c2)c1
i | 0.46 | CCOc1ccccc1N1CCN(S(=O)(=O)c2nn(C)cc2C(=O)NCCC(C)C)CC1
i | -0.48 | CS(=O)(=O)Nc1ccc(C2=NN(C(=O)CCCC(=O)O)C(c3ccccc3)C2)cc1 (stereo unspecified)
i | -0.01 | CCN1C(=O)c2cc(C(=O)N3CCCCC3)nn2CC1(C)C(=O)NC1CCCC1 (stereo unspecified)
i | -1.3 | CC(=O)Nc1ccc(S(=O)(=O)Nc2ccc3c(c2)CCCN3C(=O)c2ccccc2)cc1
i | 0.47 | CCOc1ccccc1NC(=O)Nc1nc2c(s1)CN(S(=O)(=O)c1ccccc1)CC2
i | -0.42 | Cc1nn(CC(=O)NC2CCCC2)c(=O)c2noc(C)c12
i | 0.53 | N#Cc1c(NC(=O)CN2CCOCC2)sc2c1CCCC2
i | 0.53 | Cc1ccccc1C(=O)NCc1c(-c2ccccc2)nc2n1CCS2
i | -0.18 | CC(C)Cn1c(=O)c2sccc2n2c(SCC(=O)NC3CCCC3)nnc12
i | 0.73 | COc1ccc(-c2noc(CS(=O)(=O)c3ccc(Br)cc3)n2)cc1OC
i | 0.1 | Cc1ccc(C(=O)Nc2cnc3cc(C)ccn3c2=O)cc1
i | -0.87 | CCOc1ccc(-c2noc(N3CCC(C(=O)N4CCN(C)CC4)CC3)n2)cc1OC
i | -0.32 | COc1ccc2cc(C(=O)N3CCC(CC(=O)NCCc4c[nH]c5ccc(OC)cc45)CC3)[nH]c2c1
i | -0.91 | O=C(Nc1cccc(Cl)c1)C1Oc2ccccc2NC1=O (stereo unspecified)
i | 1.6 | Cc1ccc(-c2noc(CSc3nccn3-c3ccc(C)cc3)n2)cc1
i | -0.07 | O=C(Cn1c(=O)c2cccn2c2ccc(F)cc21)NCCc1c[nH]c2ccccc12
i | -0.2 | Cc1ccc(CNC(=O)C2Cc3ccccc3CN2S(=O)(=O)c2ccc(C)cc2)cc1 (stereo unspecified)
i | 0.03 | Cc1nc2ccc(S(=O)(=O)NCC(=O)N3CCC(C)CC3)cc2s1
i | -0.54 | CCC(C)NC(=O)c1cc(NS(=O)(=O)c2ccc(Br)cc2)ccc1N1CCNCC1 (stereo unspecified)
i | 2.1 | COc1cccc(NC(=O)CCc2c(-c3ccc(F)cc3)nc3ccccn23)c1

Other structures
Anaer choline gr | Anaer choline gr early | Structure
i | -1.1 | COc1ccc(NC(=O)Nc2nnc(SCC(=O)Nc3ccc(OC)c(OC)c3)s2)cc1
i | -1.4 | Cc1csc(-c2cc(S(=O)(=O)N3CCc4ccccc4C3)c(C)s2)n1
i | 0.35 | CC(=O)N[C@@H](CC(C)C)C(=O)N[C@@H](CC(C)C)C(=O)N[C@H](C=O)CCCN=C(N)N
i | -0.02 | CCCCNC(=O)CCc1c(C)n(C)c2cc(-c3ccccc3C)nn2c1=O
i | -0.83 | Cc1nn(CC(=O)NC2CC2)c(=O)c2c(-n3cccc3)n(-c3ccccc3)nc12
i | 0.03 | CC1CCCCN1C(=O)CN(C)S(=O)(=O)c1cc2c(cc1Cl)NC(=O)CO2 (stereo unspecified)
i | -0.13 | Cn1c(=O)c2nc(SCCC(=O)Nc3ccc(Br)cc3F)n(C)c2n(C)c1=O
i | 1&0.32 | O=C(NCCCCCCNC(=O)ON=C1CCCCC1)ON=C1CCCCC1
i | 0.09 | Cc1cc(NC(=O)Nc2ccccc2)c2[nH]c(C(=O)NCCN(C)C)c(-c3ccccc3)c2c1
i | 1.2 | O=C1C(=O)N(C2CCN(S(=O)(=O)c3ccc(F)cc3)CC2)CCN1Cc1ccc(F)cc1
i | -0.61 | O=c1oc2ccccc2n1Cc1noc(-c2cncc(Br)c2)n1
i | 0.46 | Cc1cc(C)c(C(=O)N2CCCC(C(=O)N3CCN(c4cccc(Cl)c4)CC3)C2)[nH]1 (stereo unspecified)
i | 0.58 | NCCCCC(=O)O
i | 0.09 | O=S(=O)(NCCc1n[nH]c(Cc2cccc(F)c2)n1)c1cc(F)cc(F)c1
i | -1.3 | O=C(O)CC1COc2cc(F)ccc2N1Cc1ccccc1 (stereo unspecified)
i | 1.1 | Cc1ccsc1C(=O)Nc1cc(-c2noc(C3CCC3)n2)sc1C
i | 1.2 | Cc1sc(-c2nc(C(C)C)cs2)cc1S(=O)(=O)N1CCCCC1
i | 1 | COc1ccc(C2c3c(n(C)c4ccccc34)C(=O)N2CC(=O)NCCc2ccccc2OC)cc1 (stereo unspecified)
i | -0.35 | O=C(NC1CCCCC1)c1nc(-c2ccc(S(=O)(=O)N3CCCCC3)cc2)no1
i | -0.88 | Cc1cc(-c2csc(S(=O)(=O)NCC3CCN(Cc4ccc(Cl)cc4)CC3)c2)on1

Compound profiles, from the list above.
Listed for O=C(Nc1cccc(Cl)c1)C1Oc2ccccc2NC1=O (stereo unspecified) = Anaer choline gr = i; Anaer choline gr early = -0.91
Listed for Cc1ccc(-c2noc3c(=O)n(CCC(=O)Nc4ccc(Cl)cc4C)cnc23)cc1 = Anaer choline gr = i; Anaer choline gr early = 0.69
Listed for CCN1CCN(C(=O)C2CCN(c3cnc(N4CCSCC4)nc3)CC2)CC1 = Anaer choline gr = i; Anaer choline gr early = 0.6

Other compounds
Anaer choline gr | Anaer choline gr early | Structure
i | 0.31&0.84 | O=C(O)c1cc(=O)c2ccccc2[nH]1
i | 0.64 | Cc1ccc(-c2cc(N3CCN(C(=O)NC4CCCCC4)CC3)ncn2)cc1
i | 0.67 | COc1ccc(NC(=O)C2CC(=O)N(c3cccc(-c4noc(C)n4)c3)C2)c(OC)c1 (stereo unspecified)
+ | -1.9* | Cc1noc(C)c1C1CCCN1C(=O)c1cc(C2CC2)on1 (stereo unspecified)
i | -0.02 | CCc1ccccc1NC(=O)NCc1nnc(C(=O)Nc2ccccc2)s1
i | 0.73 | CC(C)NC(=O)c1ccc(Oc2ccc(NS(=O)(=O)c3ccc(Cl)cc3)cc2)nc1
i | 0.16 | CN(C)c1ccc(-c2nc(-c3ccc(-c4csc(C5CC5)n4)cc3)no2)cc1
i | -0.56 | CCN1CCN(C(=O)C2(c3cccc(Cl)c3)CC2)CC1
i | 0.73 | Oc1ccc(-c2cn3c4ccccc4n(CCN4CCOCC4)c3n2)cc1
i | 0.3 | CCOC(=O)c1cc(C)n(CC2CCC(C(=O)Nc3ccc(OC)c(OC)c3)CC2)c1C (stereo unspecified)
i | -0.72 | O=C(NCc1ccc2c(c1)OCO2)c1ccc(-n2nc(OCc3ccc(Cl)cc3)ccc2=O)cc1
i | 0.9 | Cc1ccc(C(=O)NC2CCCc3ccccc32)cc1NC(=O)c1nsc2ccccc12 (stereo unspecified)
i | -1.2 | CN1CCN(C(=O)C2CCN(S(=O)(=O)c3cc(-c4noc(C5CC5)n4)cs3)CC2)CC1
i | -0.24 | Cc1ccccc1-c1cc2n(C)c(C)c(CCC(=O)Nc3cccc(Br)c3)c(=O)n2n1
i | 0.08 | COc1cc(C2CC(=O)C3=C(C2)Nc2onc(C)c2C3c2ccccc2)ccc1O (stereo unspecified)
i | 1 | CC1CCCCN1C(=O)COc1ccc(-c2nc(-c3ccccc3)no2)cc1 (stereo unspecified)
i | -0.95 | CC(=O)Nc1ccc2nc(N3CCC(C(=O)NCCN4CCC(C)CC4)CC3)cc(C)c2c1
i | -0.18 | Cc1ccc(CN2C(=O)C3CCCCC3C2=O)cc1S(=O)(=O)NC1CC1 (stereo unspecified)
i | -1.6 | CC(C)OCCCN1C(=O)c2cc3ccccc3n2CC1(C)C(=O)NC1CCCC1 (stereo unspecified)
i | -0.95 | O=C(Nc1ccccc1)c1nnc(C2CCCN(C(=O)NCC3CCCO3)C2)s1 (stereo unspecified)
i | -0.25 | Cc1cccc(-c2nc3ccc(C(=O)NCc4cccnc4)cc3nc2-c2cccc(C)c2)c1
i | -1.4&-2.2 | CC[C@H]1OC(=O)[C@H](C)[C@@H](O[C@H]2C[C@@](C)(OC)[C@@H](O)[C@H](C)O2)[C@H](C)[C@@H](O[C@@H]2O[C@H](C)C[C@H](N(C)C)[C@H]2O)[C@](C)(OC)C[C@@H](C)C(=O)[C@H](C)[C@@H](O)[C@]1(C)O
i | -0.23 | COCCCNC(=O)CSc1nc2ccccc2nc1Cc1ccccc1
i | 0.61 | CCN(CC)C(=O)C(C#N)=Cc1cc(O)c(O)c([N+](=O)[O-])c1
i | -1.5 | CNC(=O)N1CCc2cc(S(=O)(=O)Nc3ccc(F)cc3F)ccc21
i | -2 | Cc1nc(-c2ccc(C(=O)NCc3cccnc3)cc2)cs1
i | 0.42 | O=C(CCC1CCCC1)N1CCN(C(=O)c2cc(-c3ccccn3)n[nH]2)CC1
i | -0.75 | COc1ccc(Nc2c(C(=O)N3CCOCC3)cnc3ccccc23)c(OC)c1
i | -0.77 | COc1cccc(NC(=O)c2ccc(-n3nc(N4CCCC4)ccc3=O)cc2)c1
i | 0.48 | CCC(C)(C)NS(=O)(=O)c1cc(C(=O)N2CCCC2)cs1
i | 0.49 | CCOC(=O)C1CCN(C(=O)CSc2cc(=O)n(CC)c3ccccc23)CC1
i | -1.5 | NC(=O)c1sc(=S)n(Cc2ccccc2)c1N
i | -1.2 | O=C(CS(=O)(=O)c1ccc2c(c1)S(=O)(=O)N=CN2)Nc1ccccc1
i | -0.31 | O=S(=O)(NCC1CCCO1)c1ccc(Cl)c(-c2nnc(-c3ccccc3)o2)c1 (stereo unspecified)
i | 0.05 | CCCNC(=O)Cn1nc(-c2ccc(F)cc2)c2cnc3cc(OC)c(OC)cc3c21
i | 2 | O=C(Nc1cccc(Cl)c1)N1CCN(c2nc3cccnc3n(Cc3ccccc3)c2=O)CC1
i | 0.2 | CCCNC(=O)Nc1cccc(-c2noc(-c3ccc(C)c(C)c3)n2)c1
i | 0.39 | CCOc1cc(CN2CCCC2c2cc(CC)no2)ccc1O (stereo unspecified)

Reprinted at random: three entries already listed, in no set order.
Anaer choline gr | Anaer choline gr early | Structure
i | 0.05 | CCCNC(=O)Cn1nc(-c2ccc(F)cc2)c2cnc3cc(OC)c(OC)cc3c21
i | 0.39 | CCOc1cc(CN2CCCC2c2cc(CC)no2)ccc1O (stereo unspecified)
i | -1.5 | NC(=O)c1sc(=S)n(Cc2ccccc2)c1N
